Compound activity: PubChem, Broad Institute
rRNA inh HTS – reduced GFP signal of wild-type E. coli, primary screen, bacterial rRNA inhibitor project, GFP/RFP fluorescence, OD600, single point; E. coli WT GFP vs humanized-ribosome RFP mutants, 24 h; hits give low values; DMSO median 0, no signal -100; GFP signal change (wild-type ribosome), % (test concentration not listed); actives 1.6% (n = 350,000);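 active = significant combined selectivity score with lowered wild-type GFP, culture density cut under 30%, mutant RFP and density less affected; inactive = any of these conditions unmet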; also: one replicate is shown; some compounds called inactive have numbers as strong as hits
rRNA inh HTS OD600 – recorded beside rRNA inh HTS, whose call it bears; OD600 change, %; measured here: OD600 growth;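 optical density of the mix in the first replicate; 0 = DMSO median and -100 = no signal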
rRNA inh HTS RFP – also measured in rRNA inh HTS; calls as there; RFP signal change, %; measured here: RFP humanized mutant strains;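 first replicate; 0 = DMSO median and -100 = no signal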
The depositor's hits bear a star; & = joins results of further samples. Some of the compounds tested; count on the stated rates, not on these rows.

no.	compound	rRNA inh HTS	rRNA inh HTS OD600	rRNA inh HTS RFP
1	CCCC(=O)Nc1ccc2c(c1)C(=O)N(C)C[C@H](OC)[C@H](C)CN(C(=O)CC1CC1)[C@H](C)CO2	0.1	-0.1	-1.3
2	COc1cccc(C(=O)Nc2ccc3c(c2)OC[C@H](C)N(CC2CC2)C[C@@H](C)[C@@H](OC)CN(C)C3=O)c1	2.2	6.4	1.0
3	CO[C@@H]1CN(C)C(=O)c2ccc(NC(C)=O)cc2OC[C@H](C)N(C(=O)Cc2ccccn2)C[C@@H]1C	3.4	0.2	0.7
4	CO[C@H](CN(C)S(=O)(=O)c1ccccc1)[C@@H](C)CN(C(=O)Nc1ccccc1F)[C@H](C)CO	-0.6	4.9	-2.0
5	Cc1noc(C)c1NC(=O)NCC[C@@H]1CC[C@H](NC(=O)c2ccc(F)cc2)[C@@H](CO)O1	3.9	12.3	4.4
6	Cc1ccc(-c2ccc3c(c2)O[C@H](CN(C)C(=O)NC(C)C)[C@@H](C)CN([C@@H](C)CO)S3(=O)=O)cc1	0.4	-12.8	-1.2
7	CC(C)C[C@H]1CNC(=O)C(=O)N1C[C@@H]1CCCN1C[C@H](Cc1ccccc1)N1C[C@H](CC(C)C)N(CCc2ccccc2)C(=O)C1=O	16.9	8.5	1.4
8	O=C(CNC(=O)c1ccccc1)OC(C(=O)O)c1ccc(F)cc1 (stereo unspecified)	14.4	28.1	1.1
9	C[C@H](CO)N1C[C@H](C)[C@H](CN(C)S(=O)(=O)c2cccc(F)c2)Oc2ncc(-c3ccc(F)cc3)cc2C1=O	-5.6	-16.6	6.9
10	COc1cccc(S(=O)(=O)Nc2ccc3c(c2)C(=O)N(C)C[C@@H](OC)[C@@H](C)CN[C@@H](C)CO3)c1	2.2	0.8	0.0
11	C[C@@H]1CN([C@H](C)CO)C(=O)Cc2cc(NC(=O)Cn3cnnn3)ccc2O[C@@H]1CN(C)S(=O)(=O)c1ccc(Cl)cc1	2.0	-1.0	0.6
12	COCC(=O)N1C[C@H]2[C@@H](c3ccccc31)[C@H](CO)N2C(=O)c1ccccc1F	2.7	6.5	-0.5
13	CCCS(=O)(=O)NC(=O)C1(C)CCCN(C(=O)c2ccc(C(=O)OC)cc2)C1 (stereo unspecified)	9.3	20.4	4.4
14	C/C=C/c1ccc2c(c1)O[C@H](CN(C)C(=O)c1ccncc1)[C@@H](C)CN([C@@H](C)CO)S2(=O)=O	-1.7	-2.7	-0.8
15	O=C(N[C@@H]1CC[C@@H](CCNS(=O)(=O)c2ccc(F)cc2)O[C@H]1CO)C1CCC1	-1.1	-9.3	-1.0
16	CC(C)NC(=O)N(C)C[C@@H]1Oc2ccc(NS(=O)(=O)c3ccc(Cl)cc3)cc2CC(=O)N([C@H](C)CO)C[C@H]1C	1.3	5.7	-0.1
17	Cc1ccc(S(=O)(=O)Nc2ccc3c(c2)CC(=O)N([C@H](C)CO)C[C@@H](C)[C@@H](CN(C)S(=O)(=O)c2ccc(C)cc2)O3)cc1	-2.3	-0.5	1.5
18	CC(C)NC(=O)Nc1ccc2c(c1)C(=O)N([C@H](C)CO)C[C@@H](C)[C@@H](CN(C)C(=O)CCCN(C)C)OCCCC[C@@H](C)O2	2.0	-1.7	-0.9
19	COc1cccc(NC(=O)N[C@@H]2CC[C@H](CC(=O)N3CCOCC3)O[C@H]2CO)c1	1.8	1.1	0.8
20	CCOC(=O)N1CCN(C(=O)C[C@@H]2C[C@@]3(C(=O)OCC)CCC=C3N(Cc3ccc4c(c3)OCO4)C2=O)CC1	3.5	14.2	-1.0
21	Cc1ccc(-c2ccc3c(c2)O[C@@H](CN(C)C(=O)NC(C)C)[C@@H](C)CN([C@@H](C)CO)S3(=O)=O)cc1	-6.8	-14.7	3.0
22	Cc1noc(C)c1NC(=O)Nc1ccc2c(c1)C(=O)N([C@H](C)CO)C[C@@H](C)[C@@H](CN(C)Cc1ccc(C(F)(F)F)cc1)OCCCC[C@@H](C)O2	7.2	-18.4	15.7
23	COc1ccc2c3c(n(C)c2c1)[C@H](CO)N(Cc1cccnc1)CC31CN(Cc2cccnc2)C1	-0.4	-0.3	-1.5
24	C[C@@H]1CCCCO[C@@H](CN(C)S(=O)(=O)c2ccc(F)cc2)[C@H](C)CN([C@@H](C)CO)C(=O)c2cc(NC(=O)Nc3ccc(C(F)(F)F)cc3)ccc2O1	0.1	5.5	-0.1
25	Cc1nc2c(N)nn(C)c2nc1C	21.9	15.8	-0.8
26	COc1cc2c(cc1OC)CN(C(=O)CSC1=NCCS1)CC2	-1.8	-2.5	-1.7
27	CNC(=O)C[C@H]1C(=O)N(CCc2ccccc2)C[C@@H]1CSC	-2.1	8.5	-6.4
28	Cc1noc(C)c1S(=O)(=O)Nc1ccc2c(c1)CC(=O)N([C@@H](C)CO)C[C@@H](C)[C@@H](CN(C)Cc1ccc(Oc3ccccc3)cc1)O2	0.9	-7.0	12.9
29	Cc1ccc(S(=O)(=O)N(C)C[C@@H]2Oc3ccc(NS(C)(=O)=O)cc3C(=O)N([C@@H](C)CO)C[C@H]2C)cc1	2.4	4.2	-2.8
30	COc1ccc2c3c([nH]c2c1)[C@@H](CO)N(Cc1ccccc1OC)CC31CCN(C(C)=O)CC1	9.7	11.9	1.7
31	Cc1ccccc1-c1ccccc1[C@H]1[C@@H](C#N)N(C(=O)c2cccc(F)c2)[C@H]1CO	-9.8	-60.4	12.7
32	C[C@@H]1CN([C@H](C)CO)C(=O)c2cc(NC(=O)CCC(F)(F)F)ccc2O[C@@H](C)CCCCO[C@@H]1CN(C)S(=O)(=O)c1cn(C)cn1	0.4	2.5	0.8
33	Cc1cccc(S(=O)(=O)N2C[C@H]3[C@@H](c4ccccc42)[C@@H](CO)N3Cc2ccccn2)c1	-6.8	-7.2	8.8
34	C[C@@H]1CN([C@@H](C)CO)C(=O)c2cc(C#C[C@@H](C)O)cnc2O[C@@H]1CN(C)C(=O)CN1CCOCC1	2.0	15.7	0.6
35	C[C@@H]1CN([C@@H](C)CO)S(=O)(=O)c2ccc(-c3cccc(C#N)c3)cc2O[C@@H]1CN(C)C(=O)c1ccccc1	-11.8	-9.8	5.1
36	N#C[C@H]1[C@@H](c2ccccc2-c2ccccc2F)[C@@H](CO)N1C(=O)C1CCC1	-7.0	-7.9	3.7
37	CC(=O)N1CCCCN2[C@H](CO)[C@H](c3ccc(-c4ccc(F)cc4)cc3)[C@H]2C1	-0.3	5.3	3.9
38	C[C@H]1CN([C@@H](C)CO)C(=O)CCCn2nncc2CO[C@@H]1CN(C)S(=O)(=O)c1ccccc1F	-2.2	3.4	1.3
39	CCCC#Cc1ccc2c(c1)O[C@H](CN(C)C(=O)C1CC1)[C@@H](C)CN([C@H](C)CO)S2(=O)=O	1.9	3.3	-2.8
40	C[C@@H]1CN([C@@H](C)CO)C(=O)c2cc(-c3ccc(F)cc3)cnc2O[C@H]1CN(C)C(=O)c1ccccc1F	2.4	-2.0	-2.9

(further entries)
nr	canonical_smiles	rRNA inh HTS	rRNA inh HTS OD600	rRNA inh HTS RFP
41	COC(=O)C[C@@H]1CC[C@H](NS(=O)(=O)c2cccc(F)c2)[C@@H](CO)O1	8.5	5.7	-0.4
42	C[C@@H]1CN([C@H](C)CO)S(=O)(=O)c2ccc(Br)cc2O[C@@H]1CN(C)CC1CC1	-1.5	3.3	-1.9
43	C[C@@H]1CN([C@@H](C)CO)S(=O)(=O)c2ccc(-c3ccccc3)cc2O[C@@H]1CN(C)Cc1ccncc1	-33.4	-63.8	14.1
44	C[C@H]1CN([C@@H](C)CO)C(=O)c2cc(-c3cncnc3)cnc2O[C@@H]1CN(C)C(=O)CN1CCOCC1	-0.2	0.1	-1.7
45	CCCNC(=O)C[C@H]1CC[C@@H]2[C@H](COC[C@@H](O)CN2Cc2ccc(Cl)c(Cl)c2)O1	-5.4	-0.1	-6.3
46	C[C@@H]1CN([C@@H](C)CO)C(=O)c2cc(NC(=O)C3CCCCC3)ccc2O[C@@H](C)CCCCO[C@H]1CN(C)S(=O)(=O)c1cccs1	-0.5	4.9	0.9
47	C[C@@H]1CN([C@@H](C)CO)C(=O)c2cc(NS(=O)(=O)c3cccs3)ccc2O[C@@H](C)CCCCO[C@@H]1CN(C)S(=O)(=O)c1cn(C)cn1	1.0	-4.4	-2.0
48	COc1ccc(C(=O)NC2=NCCS2)cc1S(=O)(=O)N1CCOCC1	0.9	9.5	-2.9
49	COc1ccc2c3c([nH]c2c1)[C@@H](CO)N(C)CC31CN(C(=O)c2cccnc2)C1	0.6	12.6	-1.9
50	COc1ccc2c3c(n(C)c2c1)[C@H](CO)N(C(=O)Nc1ccc(F)cc1)CC31CCN(C(=O)Nc2c(C)noc2C)CC1	-9.0	-12.2	-1.5
51	CCS(=O)(=O)N1CC(=O)N2[C@@H](CO)[C@H](c3ccc(C#CC4CCCCC4)cc3)[C@@H]2C1	-1.1	-5.4	-0.8
52	CCCNC(=O)[C@H]1[C@H](CO)[C@H]2Cn3c(cccc3=O)[C@@H]1N2Cc1cc(F)ccc1F	0.5	2.3	-0.7
53	NC(=O)C12NC(Cc3ccccc31)c1ccccc12 (stereo unspecified)	10.6	6.7	0.2
54	CNC(=O)C[C@H]1CC[C@H]2[C@H](COc3ccc(NC(=O)Nc4cccc(Cl)c4)cc3C(=O)N2C)O1	-1.0	-5.8	1.2
55	CNC[C@@H]1Oc2ccc(NS(=O)(=O)c3cn(C)cn3)cc2C(=O)N([C@H](C)CO)C[C@@H]1C	1.8	5.9	0.4
56	C[C@@H]1CN([C@H](C)CO)C(=O)CCCn2cc(nn2)CO[C@@H]1CN(C)Cc1ccc2c(c1)OCO2	-0.1	3.9	-1.7
57	Cc1noc(C)c1S(=O)(=O)N(C)C[C@@H]1OCCCC[C@H](C)Oc2ccc(NC(=O)Nc3ccc(C(F)(F)F)cc3)cc2C(=O)N([C@H](C)CO)C[C@@H]1C	-0.3	2.1	-1.9
58	CCOC(=O)C1(C)CCCCN1C(=O)c1ccoc1 (stereo unspecified)	7.2	14.5	0.7
59	OC(c1ccc(-c2ccccc2)cc1)c1ncc(-c2ccc(F)cc2)[nH]1 (stereo unspecified)	-61.2	-76.8	-23.2
60	C[C@H](CO)N1C[C@H](C)[C@@H](CN(C)C(=O)Cc2ccncc2)Oc2ncc(C#CCN(C)C)cc2C1=O	4.2	9.8	2.3
61	C[C@H](CO)N1C[C@H](C)[C@@H](CN(C)C(=O)CN(C)C)Oc2ncc(C#Cc3ccncc3)cc2C1=O	3.4	10.4	1.1
62	COc1ccc(NC(=O)N(C)C[C@@H]2Oc3ccc(NC(=O)CCN4CCOCC4)cc3CC(=O)N([C@H](C)CO)C[C@@H]2C)cc1	0.8	7.2	-0.8
63	C[C@@H]1CN([C@H](C)CO)C(=O)c2cc(NS(=O)(=O)c3cn(C)cn3)ccc2O[C@@H](C)CCCCO[C@@H]1CN(C)CC1CCCCC1	-0.8	-1.4	-3.0
64	C[C@@H]1CCCCO[C@@H](CN(C)Cc2ccc(C(=O)O)cc2)[C@@H](C)CN([C@H](C)CO)C(=O)c2cc(NC(=O)c3ccccc3)ccc2O1	2.2	3.9	-3.7
65	C[C@H](NC(=O)C[C@@H]1C=C[C@@H](NC(=O)C2CCC2)[C@@H](CO)O1)c1ccccc1	1.3	6.1	-1.6
66	COc1ccc2c3c([nH]c2c1)[C@H](CO)N(C(=O)Nc1ccc(F)cc1)CC31CCN(C(=O)c2ccccn2)CC1	2.9	0.0	2.0
67	C[C@@H]1CN([C@H](C)CO)C(=O)c2cc(NC(=O)NC3CCCCC3)ccc2O[C@H]1CN(C)C(=O)Nc1cccc2ccccc12	-2.1	-4.0	2.3
68	O=C(C1CCC1)N1C[C@@H]2N[C@H](C1)C2c1ccc(-c2ccncc2)cc1 (stereo partly specified)	5.4	3.9	-2.8
69	COc1ccccc1S(=O)(=O)N1[C@@H]2CNC[C@H]1C2c1ccc(/C=C/c2ccccc2)cc1 (stereo partly specified)	-55.2&-56.0	-72.2&-76.6	-11.4&-12.4
70	COCC(=O)N(C)C[C@@H]1Oc2cc(C#C[C@H](C)O)ccc2S(=O)(=O)N([C@H](C)CO)C[C@@H]1C	2.1	2.4	-2.5
71	COc1ccc(NC(=O)N(C)C[C@@H]2Oc3ccc(NC(=O)Nc4ccccc4)cc3CC(=O)N([C@@H](C)CO)C[C@@H]2C)cc1	1.9	-1.2	1.2
72	O=C(C1CCCC1)N1CC2(C1)[C@@H](c1ccccc1)[C@@H](CO)N2Cc1ccccc1F	-9.8	-22.8	7.0
73	N#C[C@H]1[C@H](c2ccccc2)[C@@H](CO)N1C(=O)c1ccccc1F	4.5	21.5	0.3
74	C[C@H](CO)N1C[C@H](C)[C@H](CN(C)S(C)(=O)=O)Oc2cc(-c3cccc(F)c3)ccc2S1(=O)=O	-12.3	-16.6	1.9
75	CCCNC(=O)N[C@H]1CC[C@@H](CCn2cc(C3CCCC3)nn2)O[C@@H]1CO	3.4	8.0	3.5
76	COc1ccc(-c2ccccc2[C@H]2[C@@H](CO)N(C(=O)C3CCC3)[C@H]2C#N)cc1	-2.0	-13.7	2.3
